Source: PubChem
YB-1 expr inh = YB-1 expression inhibition. 30,000 compounds, 0.37% hits. U2OS, qRT-PCR YB-1 vs CDIP delta delta Cp, 16 h; active compounds read high; zero = DMSO, each unit about twofold. delta delta Cp (YB-1 minus CDIP) (test concentration not listed);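 active = delta delta Cp rounded down to an integer at or above 3, about 3 SD of DMSO wells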;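 note: higher means less YB-1 transcript or more CDIP transcript relative to DMSO; stock transfer was 100 nL into about 100 µL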
PD-1 reversal = reversal of PD-1 mediated T-cell inhibition. primary human CD4 T cells, PD-L1 beads, CellTiter-Glo 96 h. 29,000 tested, under 10 active. activation, % (no concentration beside the values). AID 2316;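 active = replicate mean of 50% or more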;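 note: 0% = median vehicle wells and 100% = positive control; 100 nL library stock added to about 50 µL; numbers are from one replicate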
MITF inhib = blocks MITF activity; inhibition, % (concentration not given with the values); AID 2240; 37,000 compounds, 0.28% hits; TRPM1 promoter luciferase, luminescence, 24 h;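 active = most replicates at 85% or more, or half of them and the mean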;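 note: human melanocyte line stably carrying TRPM1 promoter luciferase reporter; 0% = vehicle wells and 100% = a positive control; the first replicate is given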
Hedgehog inh = blocks Sonic Hedgehog signaling. inhibition, % (test concentration not listed). Shh-LIGHT2 Gli-luciferase reporter, 30 h. 22,000 compounds, 2.1% hits. AID 2313;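 active = replicate mean of 65% or more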;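 note: pathway switched on by Shh-conditioned medium diluted 1 in 25 in low serum; 100 nL library stock added to about 40 µL; 0% = median of neutral wells and 100% = positive control level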
An asterisk follows results filed as active; . = no result given; & = joins results of further samples. A portion of the library; rates above refer to the full screens.

SMILES | YB-1 expr inh | PD-1 reversal | MITF inhib | Hedgehog inh
COc1ccc(CN(C)C[C@H]2OCCCC[C@@H](C)Oc3ccc(NC(=O)Nc4ccc(OC)cc4)cc3C(=O)N([C@H](C)CO)C[C@@H]2C)cc1 | 0.53 | -0.9 | -13 | 46
Cc1noc(C)c1NC(=O)N(C)C[C@@H]1Oc2ccc(NC(=O)CCC(F)(F)F)cc2CC(=O)N([C@H](C)CO)C[C@@H]1C | 0.42 | 2.5 | -9 | -2
C[C@H]1CN([C@@H](C)CO)C(=O)c2cccc(NC(=O)Nc3ccccc3)c2O[C@H]1CN(C)C(=O)Nc1ccc2c(c1)OCO2 | -0.45 | -0.8 | -16 | -29
Nc1cc(N)nc(SCC(=O)Nc2cccc(Cl)c2Cl)n1 | . | -1.3 | -31 | .
C[C@@H]1CN([C@@H](C)CO)C(=O)c2cccc(NC(=O)C3CCOCC3)c2O[C@@H]1CN(C)C(=O)Nc1ccc(C(F)(F)F)cc1 | -0.55 | . | 0 | 13
CNC[C@H]1Oc2ccc(NS(=O)(=O)c3c(C)noc3C)cc2CC(=O)N([C@@H](C)CO)C[C@H]1C | 0.23 | . | 5 | -6
COc1ccc(NC(=O)N(C)C[C@@H]2Oc3c(NS(=O)(=O)c4cccs4)cccc3C(=O)N([C@H](C)CO)C[C@H]2C)cc1 | 0.27 | 1.4 | 3 | -7
COc1cc(NC(=O)COC(C)=O)cc(OC)c1OC | . | 1.3 | -8 | .
COc1ccc(S(=O)(=O)Nc2cccc3c2O[C@H](CN(C)Cc2ccc(C(F)(F)F)cc2)[C@@H](C)CN([C@H](C)CO)C3=O)cc1 | 0.053 | . | -8 | 22
COc1ccc(CN(C)C[C@@H]2Oc3ccc(NS(=O)(=O)c4ccc(OC)cc4)cc3C(=O)N([C@H](C)CO)C[C@@H]2C)cc1 | -0.41 | 1.5 | 4 | -24
C[C@@H]1CN([C@@H](C)CO)C(=O)c2cccc(NS(=O)(=O)c3ccc(F)cc3)c2O[C@@H]1CN(C)C(=O)NC1CCCCC1 | 0.17 | -1.7 | 6 | 5
Cc1cc2nc3c(=O)[nH]c(=O)nc-3n(CC(O)C(O)C(O)CO)c2cc1C (stereo unspecified) | -0.42 | . | 16 | -12
Cc1noc(C)c1NC(=O)N(C)C[C@@H]1Oc2c(NS(=O)(=O)c3ccc(F)cc3)cccc2C(=O)N([C@H](C)CO)C[C@@H]1C | 0.058 | 2.0 | -8 | -19
CC(C)NC(=O)Nc1cccc2c1O[C@H](CN(C)C(=O)Nc1ccc3c(c1)OCO3)[C@H](C)CN([C@@H](C)CO)C2=O | 0.55 | -0.9 | 0 | 10
COc1ccc(S(=O)(=O)N(C)C[C@H]2Oc3c(NS(=O)(=O)c4ccccc4)cccc3C(=O)N([C@@H](C)CO)C[C@@H]2C)cc1 | 0.084 | 1.1 | -18 | -21
O=C[C@@H]1CCCN1C(=O)[C@@H]1CCCN1C(=O)OCc1ccccc1 | -0.23 | . | -12 | -32
Cc1ccc(S(=O)(=O)Nc2ccc3c(c2)C(=O)N([C@H](C)CO)C[C@H](C)[C@H](CN(C)C(=O)Nc2ccc(C(F)(F)F)cc2)OCCCC[C@@H](C)O3)cc1 | 0.026 | -5.1 | 22 | 38
CCCOc1ccc(Oc2nc(Nc3ccc(C)cc3)nc(N3CCOCC3)n2)nn1 | . | -1.7 | -60 | .
C[C@H]1CN([C@@H](C)CO)C(=O)c2cc(NC(=O)c3ccncc3)ccc2O[C@H]1CN(C)S(=O)(=O)c1cn(C)cn1 | -0.14 | 1.7 | -8 | -33
CCOc1ccc(-c2cn(S(=O)(=O)c3cccc4nsnc34)nc2N)cc1 | . | 0.3 | 4 | .
C[C@H]1CN([C@@H](C)CO)C(=O)c2cc(NS(=O)(=O)c3cccs3)ccc2O[C@@H]1CN(C)Cc1ccc2c(c1)OCO2 | -0.13 | 0.3 | -8 | 4
CO[C@H]1CC(O[C@@H]2/C(C)=C/C[C@@H]3C[C@@H](C[C@]4(CC[C@H](C)[C@@H](C5CCCCC5)O4)O3)OC(=O)[C@@H]3C=C(C)/C(=N/O)[C@H]4OC/C(=C\C=C\[C@@H]2C)[C@]43O)O[C@@H](C)C1O (stereo partly specified) | 0.12 | . | 3 | -39
Cc1cc(C(=O)Nc2cccc3c2O[C@@H](CN(C)Cc2ccc(C(=O)Nc4ccccc4N)cc2)[C@H](C)CN([C@H](C)CO)C3=O)n(C)n1 | -0.11 | 0.1 | 0 | .
O=C(CSc1nc2cc(Cl)ccc2s1)Nc1ccc(I)cc1 | . | -3.7 | -4 | .
CCCCOc1cc(C(=O)NCCN(CC)CC)c2ccccc2n1 | 0.088&-0.36 | . | -10&3 | 0&-12

Entries listed so far with a Cl atom (2):
SMILES | YB-1 expr inh | PD-1 reversal | MITF inhib | Hedgehog inh
Nc1cc(N)nc(SCC(=O)Nc2cccc(Cl)c2Cl)n1 | . | -1.3 | -31 | .
O=C(CSc1nc2cc(Cl)ccc2s1)Nc1ccc(I)cc1 | . | -3.7 | -4 | .

Returning to the listing with the two entries that preceded the break.
SMILES | YB-1 expr inh | PD-1 reversal | MITF inhib | Hedgehog inh
O=C(CSc1nc2cc(Cl)ccc2s1)Nc1ccc(I)cc1 | . | -3.7 | -4 | .
CCCCOc1cc(C(=O)NCCN(CC)CC)c2ccccc2n1 | 0.088&-0.36 | . | -10&3 | 0&-12
C[C@@H]1CN([C@H](C)CO)C(=O)Cc2cc(NC(=O)Nc3ccc(C(F)(F)F)cc3)ccc2O[C@H]1CN(C)S(=O)(=O)c1cccs1 | 0.11 | 2.9 | 4 | .
C[C@H]1CN([C@@H](C)CO)C(=O)Cc2cc(N(C)C)ccc2O[C@H]1CN(C)Cc1ccc2c(c1)OCO2 | -0.075 | -1.0 | -1 | 15
O=C(O)C1CCCN(S(=O)(=O)c2ccccc2)C1 (stereo unspecified) | -0.13 | -0.1 | 0 | -21
C[C@@H]1CN([C@H](C)CO)C(=O)c2cc(NC(=O)Nc3cccc4ccccc34)ccc2O[C@H]1CN(C)C(=O)Nc1ccc(C(F)(F)F)cc1 | -0.34 | -1.0 | 13 | -14
Cc1ccc(-c2nn3c(C)nnc3c3ccccc23)cc1S(=O)(=O)NCCN1CCOCC1 | . | -1.7 | -27 | .
CC(C)NC(=O)N(C)C[C@H]1Oc2c(NS(=O)(=O)c3ccccc3)cccc2C(=O)N([C@H](C)CO)C[C@@H]1C | 0.36 | . | 8 | -8
C/C(=N\O)c1ccc2c(c1)CCO2 | -0.45 | 0.8 | -52 | -64
Cc1noc(C)c1S(=O)(=O)Nc1ccc2c(c1)CC(=O)N([C@@H](C)CO)C[C@@H](C)[C@@H](CN(C)Cc1ccc(-c3ccccc3)cc1)O2 | -0.46 | 0.7 | 20 | -45
COc1cc(-c2coc3cc(OCc4ccccc4)c(OC)c(O)c3c2=O)cc(OCc2ccccc2)c1OC | 0.3 | . | -18 | 10
CC1=C(C#N)C(c2cc(F)ccc2F)C(C(=O)OCc2ccccc2)=C(N)O1 (stereo unspecified) | -0.11 | -1.4 | 22 | -45
Cc1ccc(S(=O)(=O)N(C)C[C@H]2Oc3c(NC(=O)c4cc(C)nn4C)cccc3C(=O)N([C@@H](C)CO)C[C@@H]2C)cc1 | 0.011 | 1.7 | -5 | 8
CCC(=O)c1ccccc1OCCSc1nc(C)cc(=O)[nH]1 | . | -0.2 | -12 | .
O=C(CCc1ccc(O)cc1)c1c(O)cc(O)cc1O[C@@H]1O[C@H](CO)[C@@H](O)[C@H](O)[C@H]1O | -0.1 | . | 1 | -20
Cc1ccc(S(=O)(=O)N(C)C[C@@H]2OCCCC[C@@H](C)Oc3ccc(NS(=O)(=O)c4ccccc4)cc3C(=O)N([C@H](C)CO)C[C@@H]2C)cc1 | -0.095 | -3.6 | 26 | 39
CCOC(=O)c1cnc(SCC(=O)Nc2ccc(Cl)cc2Cl)nc1N | . | -5.7 | 17 | .
C[C@H]1CN([C@@H](C)CO)C(=O)Cc2cc(NC(=O)C3CC3)ccc2O[C@@H]1CN(C)S(=O)(=O)c1ccccc1 | -0.082 | -0.6 | -3 | 5
C[C@H](CO)N1C[C@H](C)[C@H](CN(C)S(=O)(=O)c2ccc(F)cc2)Oc2ccc(N(C)C)cc2C1=O | 0.082 | 0.2 | -1 | -4
CSc1cccc(NC(=O)CN(C)S(=O)(=O)c2ccc3ccccc3c2)c1 | . | 1.3 | -31 | .
C[C@@H]1CN([C@@H](C)CO)C(=O)c2cc(NC(=O)Nc3cccc4ccccc34)ccc2O[C@@H]1CN(C)S(C)(=O)=O | 0.074 | 1.4 | 9 | 6
CC(C)NC(=O)Nc1ccc2c(c1)C(=O)N([C@@H](C)CO)C[C@H](C)[C@@H](CN(C)Cc1ccc(Oc3ccccc3)cc1)O2 | 0.4 | -1.6 | 18 | .
CCCN(C)C[C@H]1OCCCC[C@@H](C)Oc2ccc(NC(=O)Nc3c(C)noc3C)cc2C(=O)N([C@H](C)CO)C[C@@H]1C | -0.013 | -0.5 | 2 | .
C[C@@H]1CN([C@H](C)CO)C(=O)c2cc(NC(=O)Nc3ccc4c(c3)OCO4)ccc2O[C@H]1CN(C)C(=O)Nc1ccc2c(c1)OCO2 | -0.098 | 1.2 | -9 | -2
C[C@H]1CN([C@@H](C)CO)C(=O)Cc2cc(NS(=O)(=O)c3ccc(Cl)cc3)ccc2O[C@H]1CN(C)S(=O)(=O)c1cccs1 | -0.11 | -0.1 | -3 | -3
Cc1noc(C)c1NC(=O)N(C)C[C@@H]1Oc2ccc(NS(C)(=O)=O)cc2C(=O)N([C@@H](C)CO)C[C@@H]1C | 0.12 | 2.1 | -5 | -8
C[C@H](CO)N1C[C@H](C)[C@H](CN(C)Cc2ccc(-c3ccccc3)cc2)Oc2ccc(NC(=O)NC3CCCCC3)cc2C1=O | -0.0095 | 0.3 | 9 | 43

Molecules above containing an NH in an aromatic ring:
SMILES | YB-1 expr inh | PD-1 reversal | MITF inhib | Hedgehog inh
Cc1cc2nc3c(=O)[nH]c(=O)nc-3n(CC(O)C(O)C(O)CO)c2cc1C (stereo unspecified) | -0.42 | . | 16 | -12
CCC(=O)c1ccccc1OCCSc1nc(C)cc(=O)[nH]1 | . | -0.2 | -12 | .

Additional results.
SMILES | YB-1 expr inh | PD-1 reversal | MITF inhib | Hedgehog inh
Nc1ncnc2c1c1nc3ccccc3nc1n2Cc1ccccc1 | . | 1.9 | -23 | .
COc1c(O[C@@H]2O[C@H](CO)[C@@H](O)[C@H](O)[C@H]2O)cc2oc(-c3ccc(O)cc3)cc(=O)c2c1O | -0.17 | 0.3 | -71 | -7
COc1ccccc1OCC(=O)Nc1ccc(C)cc1[N+](=O)[O-] | . | -0.6 | -62 | .
CC1CC(NC(=S)Nc2ccc(I)cc2F)CC(C)(C)C1 (stereo unspecified) | -0.11 | -3.8 | 45 | 42
C[C@@H]1CN([C@@H](C)CO)C(=O)Cc2cc(NC(=O)Cc3ccccc3)ccc2O[C@@H]1CN(C)Cc1ccc(C(F)(F)F)cc1 | -0.21 | -2.2 | -2 | -47
CSc1nc(N)n(-c2cc(Cl)cc(Cl)c2)n1 | 0.12 | 0.5 | -4 | 2
C[C@@H]1O[C@@H](OC[C@H]2OC(Oc3c(-c4ccc(OCCO)c(OCCO)c4)oc4cc(OCCO)cc(O)c4c3=O)[C@H](O)[C@@H](O)[C@@H]2O)[C@H](O)[C@H](O)[C@H]1O (stereo partly specified) | -0.13 | . | -18 | 10
C[C@@H]1CN([C@H](C)CO)C(=O)Cc2cc(NC(=O)C3CC3)ccc2O[C@H]1CN(C)C(=O)Nc1ccc2c(c1)OCO2 | -0.27 | 0.2 | 7 | .
C[C@@H]1CN([C@H](C)CO)C(=O)c2cc(NS(=O)(=O)c3ccc(F)cc3)ccc2O[C@@H]1CN(C)Cc1ccncc1 | 0.26 | 0.6 | 7 | 1
C[C@H]1CN([C@@H](C)CO)C(=O)Cc2cc(NC(=O)C3CC3)ccc2O[C@H]1CN(C)CC1CCCCC1 | 0.39 | -2.4 | -10 | -72
Cc1ccc(S(=O)(=O)Nc2ccc3c(c2)CC(=O)N([C@H](C)CO)C[C@@H](C)[C@H](CN(C)Cc2ccccc2)O3)cc1 | -0.019 | 1.5 | 1 | 23
C[C@H](CO)N1C[C@H](C)[C@@H](CN(C)C(=O)Nc2ccccc2)Oc2ccc(NC(=O)C3CCCCC3)cc2C1=O | 0.38 | . | -7 | -98
CC(C)(C)C(=O)Cn1nnc(N2CCOCC2)n1 | -0.76 | 0.5 | 0 | .
Cc1ccc(NC(=O)COc2ccc(Cl)cc2)c([N+](=O)[O-])c1 | . | -0.5 | -42 | .
Cc1ccc(S(=O)(=O)Nc2ccc3c(c2)C(=O)N([C@@H](C)CO)C[C@@H](C)[C@@H](CN(C)Cc2ccc(Oc4ccccc4)cc2)O3)cc1 | 0.053 | . | 37 | .
Cc1cccc(NC(=O)CC2OCCN(Cc3ccccc3)C2=O)c1 (stereo unspecified) | . | 0.4 | 9 | .
Cc1nc([N+](=O)[O-])c(Sc2nc3ccccc3[nH]2)n1Cc1ccccc1 | . | -14 | 16 | .
